High-throughput results from PubChem.
Mtb MbtI inh: MbtI salicylate synthase inhibitors, primary screen, biochemical, fluorescence intensity; P9WFX0; purified MbtI enzyme, fluorescence intensity read-out; inhibition, %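 (about 17 µg/mL by stock and volumes)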; actives 0.89% (n = 100,000); AID 493033, 2011;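 active = above 50% in both replicates, above 80% if mildly self-fluorescent; inactive = the rest, strongly fluorescent compounds included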;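 note: 0% = mean of negative and 100% = mean of positive controls; one replicate is shown; some compounds called inactive have numbers as strong as hits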
Target sequence (P9WFX0 whole entry, looked up): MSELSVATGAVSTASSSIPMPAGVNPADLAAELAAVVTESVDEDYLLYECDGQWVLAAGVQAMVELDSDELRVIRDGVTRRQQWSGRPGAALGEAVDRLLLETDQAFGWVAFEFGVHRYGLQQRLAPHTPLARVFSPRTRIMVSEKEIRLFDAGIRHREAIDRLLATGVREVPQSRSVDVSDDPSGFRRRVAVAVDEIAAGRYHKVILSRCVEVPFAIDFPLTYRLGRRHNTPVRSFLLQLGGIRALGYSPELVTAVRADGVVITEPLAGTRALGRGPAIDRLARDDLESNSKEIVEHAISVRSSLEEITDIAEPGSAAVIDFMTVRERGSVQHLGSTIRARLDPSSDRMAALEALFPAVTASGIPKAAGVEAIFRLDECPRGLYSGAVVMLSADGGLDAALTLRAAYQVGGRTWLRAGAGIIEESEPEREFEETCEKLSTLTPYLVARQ
Mtb MenB inh: M. tuberculosis MenB inhibitors, primary screen, biochemical, absorbance; actives 0.43% (n = 100,000); MenB enzyme assay, absorbance read-out; some hits fall short of the stated cut; 1,4-dihydroxy-2-naphthoyl-CoA synthase (Mycobacterium tuberculosis (strain ATCC 25618 / …; inhibition, %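 (about 12 µg/mL by stock and volumes)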;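 active = mean of two replicates above 30%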;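 note: 0% = no compound and 100% = wells with inactive enzyme; the first replicate is given; strong numbers were not always called active; inactives centre near -10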
PV pol inh: poliovirus RdRp elongation inhibitors, primary screen, biochemical, fluorescence polarization, total intensity; actives 0.66% (n = 150,000); Genome polyprotein (Poliovirus type 1 (strain Mahoney)), P03300; poliovirus polymerase elongation; stronger effect = lower value; % elongation, % (compound at 16.7 µg/mL); in the data active = % elongation below about 90%; note: some results filed as inactive read as strong as hits
Target sequence (P03300 1749-2209 limits assumed): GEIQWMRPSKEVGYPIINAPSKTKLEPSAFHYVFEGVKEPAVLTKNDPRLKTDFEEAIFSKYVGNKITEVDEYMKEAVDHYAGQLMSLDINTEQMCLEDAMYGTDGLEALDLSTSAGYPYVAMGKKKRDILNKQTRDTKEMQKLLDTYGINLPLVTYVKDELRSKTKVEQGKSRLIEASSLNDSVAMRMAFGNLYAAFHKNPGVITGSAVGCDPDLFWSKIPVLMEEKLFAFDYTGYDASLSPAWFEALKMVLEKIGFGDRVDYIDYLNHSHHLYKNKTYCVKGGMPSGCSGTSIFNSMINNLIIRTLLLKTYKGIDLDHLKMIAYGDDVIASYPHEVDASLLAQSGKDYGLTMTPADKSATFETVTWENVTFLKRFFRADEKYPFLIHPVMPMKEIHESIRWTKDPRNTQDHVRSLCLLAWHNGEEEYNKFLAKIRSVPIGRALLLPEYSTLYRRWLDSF
PV pol inh intensity: second read-out of PV pol inh, no call of its own (marks repeat the call); % elongation; measured here: total intensity read-out; formula for this scale not given here;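 total fluorescence in place of polarization; lower means less elongation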
Starred values were filed as active, the others as inactive; i = inactive; nt = not tested or not shown.

SMILES	Mtb MbtI inh	Mtb MenB inh	PV pol inh	PV pol inh intensity
CCOc1ccc(C(C)NC(=O)c2c(C)noc2C)cc1OCC (stereo not drawn)	-7	-46	101	91
COC(=O)c1cccc(NC(=O)/C=C/c2ccc3c(c2)OCO3)c1	nt	-28	98	89
COc1ccc(-c2noc(CC(=O)N(C)Cc3ccco3)n2)cc1	-4	-23	106	101
O=C(CCN1CCc2ccccc2C1)c1ccc2c(c1)OCCO2	34	-7	102	105
O=C1CCCC2=C1C(Cc1ccccc1)C1=C(CCCC1=O)O2	-7	-26	100	99
O=C(O)c1cc(S(=O)(=O)Nc2ccc(O)cc2)ccc1O	nt	-6	98	103
Cc1ccc(N2CCN(C(=O)C(c3ccccc3)c3ccccc3)CC2)cc1Cl	nt	6	102	104
Cc1csc(SC(C)C(=O)NC(C)C)n1 (stereo not drawn)	-13	-22	106	110
NC(=O)C1COc2ccccc2O1 (stereo not drawn)	2	0	105	107
Cc1nnc(N2CCCC(C(=O)NCc3ccco3)C2)c2nn(-c3ccccc3)c(C)c12 (stereo not drawn)	i	0	101	102
CC(=O)OCC(=O)[C@@]1(O)[C@H](C)C[C@H]2[C@@H]3CCC4=CC(=O)C=C[C@]4(C)[C@@]3(F)[C@@H](O)C[C@@]21C	-4	3	99	101
Cc1ccc(S(=O)(=O)n2c(=O)oc3ccccc32)cc1	-5	-10	101	104
CCN1CCN(C(=S)c2ccc(OCC(N)=O)c(OC)c2)CC1	25	-19	101	103
CN(C)c1ccc(/C=C2\CCCC(=C3SCCS3)C2=O)cc1	-7	nt	71	190
COc1ccccc1/C=C(\C#N)C(N)=C(C#N)C#N	-35	-59	nt	nt
Cn1cnnc1SCC(=O)N1c2ccccc2Sc2ccc(Cl)cc21	nt	2	97	93
N/C(=N\OC(=O)c1ccc2nsnc2c1)c1nonc1N	-1	6	102	103
COc1ccc(COCC(O)CS(=O)(=O)c2ccc(OC)c(OC)c2)cc1 (stereo not drawn)	-5	13	108	109
Cc1cccc(S(=O)(=O)C(C#N)c2nc3ccccc3nc2N2CCCC2)c1 (stereo not drawn)	-4	-33	nt	nt
O=C(NC1CCCCCC1)C1c2ccccc2C(=O)N1Cc1cccnc1 (stereo not drawn)	1	5	102	101
COC(=O)CC(=O)CSc1cc(C)c(C#N)c2nc3ccccc3n12	84	-82	112	162
O=C(/C=C/Nc1ccc(S(=O)(=O)N2CCCCC2)cc1)C(F)(F)F	7	10	99	113
COc1ccc(C(=O)Nc2ccccc2C(=O)NC(C(=O)NCc2ccco2)C(C)C)cc1 (stereo not drawn)	-36	30*	101	102
CC(C)Oc1ccccc1CN	3	32*	101	101
COc1ccc(OC)c(C2C3=C(COC3=O)Nc3[nH]c(=O)[nH]c(=O)c32)c1 (stereo not drawn)	100	-21	106	108
SMILES	Mtb MbtI inh	Mtb MenB inh	PV pol inh	PV pol inh intensity
CC(C)OC(=O)C1C(=O)NC23CCCCC2C1c1ccccc1O3 (stereo not drawn)	2	-20	104	96
O=C(/C=C/c1cccc(C(F)(F)F)c1)N1CCN(c2ccccc2F)CC1	6	-5	103	96
Cc1ccc(S(=O)(=O)N(C)CC(=O)NCc2nc(-c3cccc(C)c3)no2)cc1	0	-11	105	101
Clc1nc(Nc2ccccc2)sc1/C=N/n1cnnc1	62	-12	46	241
COc1cccc(C2C3=C(CC(C)(C)CC3=O)Nc3[nH]c(=O)[nH]c(=O)c32)c1 (stereo not drawn)	17	-63	103	101
O=C(OC1CCOC1=O)C1CCN(C(=O)Nc2ccccc2)CC1 (stereo not drawn)	-3	-17	104	108
COC(=O)c1cc(S(N)(=O)=O)c(C)o1	-19	17	101	103
COc1ccc(CCn2c(=O)c3ccccc3n(CC(=O)N(C)c3ccccc3)c2=O)cc1OC	11	-10	102	106
O=c1cc(CSc2ncccn2)c2cc3c(cc2o1)CCC3	13	1	100	104
O=C(CN1CCCN(Cc2ccc(F)cc2Cl)C1=O)NC1CCCCCC1	-14	-2	102	104
CC(=O)Nc1ccc(C2C3=C(Nc4c2c(=O)[nH]c(=O)n4Cc2ccccc2)c2ccccc2C3=O)cc1 (stereo not drawn)	1	-26	98	95
N#Cc1ccccc1NC(=O)Nc1ccccc1	i	-21	106	101
CC1CCC/C(=C(/C#N)c2nc(-c3ccccc3O)cs2)C1 (stereo not drawn)	-1	-9	100	101
CC(C)(C)N/N=C/c1ccccc1I	-6	-1	101	102
CCOc1ccc(C(=O)CNC2=NCCC2)cc1	-3	nt	102	106
CCOC(=O)c1sc(N(Cc2nc(-c3cccc(Cl)c3)oc2C)C(C)=O)c(C#N)c1C	60	1	101	103
CCOC(=O)c1cc(C#N)c(=S)[nH]c1O	19	-52	110	114
Fc1ccc(NC2=NCCCCC2)c(F)c1F	-1	6	100	105
CCN1CCN(CCC(=O)Nc2ccc(-c3ccccc3)cc2)CC1	14	nt	100	98
CC(=O)N1CCN(c2nc(N3CCCCC3)nc(N3CCCCC3)n2)CC1	-4	-25	103	102
Cc1nc2sccn2c1-c1nc(-c2ccccc2)cs1	121	-15	98	100
COc1ccc(C2C(C(=O)N3CCN(c4ccccn4)CC3)CCC(=O)N2c2cc(OC)c(OC)c(OC)c2)cc1 (stereo not drawn)	116	-36	101	101
Cc1cc(Oc2ccccc2)nc2ccc(O)cc12	33	-35	104	101
CCc1nc2ccc(C(=O)N3CCCCCC3)cc2nc1CC	-7	-15	102	105
O=C(/C=C/c1ccc(Br)s1)Nc1ccc(-n2cnnn2)cc1	2	-19	103	104

One compound at a time, from the list above:
`O=C(/C=C/c1ccc(Br)s1)Nc1ccc(-n2cnnn2)cc1` across the screens: Mtb MbtI inh: 2; Mtb MenB inh: -19; PV pol inh: 103; PV pol inh intensity: 104
`COc1cccc(C2C3=C(CC(C)(C)CC3=O)Nc3[nH]c(=O)[nH]c(=O)c32)c1` (stereo not drawn) across the screens: Mtb MbtI inh: 17; Mtb MenB inh: -63; PV pol inh: 103; PV pol inh intensity: 101

Single values from the entries so far:
`COC(=O)CC(=O)CSc1cc(C)c(C#N)c2nc3ccccc3n12` – Mtb MenB inh: -82
`CC(C)(C)N/N=C/c1ccccc1I` – PV pol inh: 101

The list continues:
SMILES	Mtb MbtI inh	Mtb MenB inh	PV pol inh	PV pol inh intensity
CC1Cc2ccccc2N1C(=O)COc1ncnc2ccccc12 (stereo not drawn)	-8	nt	103	107
O=C(OCc1cc(=O)oc2cc(O)ccc12)c1cc(S(=O)(=O)N2CCOCC2)ccc1F	-81	-11	106	106
COc1ccc(NCC(=O)N2CCCC2)cc1Cl	5	7	108	107
Cc1cc2cc(OCC(=O)O)ccc2n1C	-53	5	103	103
CN(Cc1ccccc1)c1nnc(NC(=O)NCc2ccccc2)s1	-9	-13	102	103
COc1ccccc1NCC(=O)n1nc(-c2ccccc2)cc1-c1ccccc1	nt	-16	105	109
CC(C)n1[nH]c(=O)c2c1NC(=O)CSC2c1ccc(Br)cc1 (stereo not drawn)	-7	-8	106	110
CC1CN(CC(=O)NC(=O)NC(C)(C)C)CC(C)O1 (stereo not drawn)	11	6	99	91
N#Cc1cc(Oc2ccccc2Cl)c(-n2nnc3ccccc32)cc1C#N	-7	-33	103	101
Cc1ccc(S(=O)(=O)NCCC(=O)N2CCCCC2)cc1	1	nt	104	101
Cn1nc(-c2ccccc2F)c2cc(C(=O)NCCCN3CCN(c4ccc(F)cc4)CC3)sc21	0	-26	99	102
NCC1Cc2ccccc2O1 (stereo not drawn)	-6	-26	101	101
CS(=O)(=O)N1Cc2ccccc2CC1C(=O)OCC(=O)Nc1sccc1C#N (stereo not drawn)	-8	-7	148	163
O=c1cc(CNc2ccc(Br)cc2)nc2sccn12	18	-4	103	95
O=C(NCc1ccccc1)c1ccco1	-18	-18	103	102
COc1ccc(C2OC(=O)CC2C(=O)NC2CCCC2)cc1OC (stereo not drawn)	-9	-6	100	106
COc1ccc(S(=O)(=O)NC(C)C(=O)NCC2CCCO2)cc1Cl (stereo not drawn)	-3	-16	100	101
CC1=CC(C)C(C2OCC(C)CO2)C(C)C1 (stereo not drawn)	nt	0	108	114
CS(=O)(=O)c1ccccc1C(=O)Nc1ccc(N2CCCCC2)cc1	-7	0	104	103
O=C(CCC1CCCCC1)OCCN1CCCC1=O	2	nt	103	99
Cc1cc(N2CCN(c3ccccc3)CC2)n2nc(-c3ccccc3)cc2n1	26	10	101	104
CN(C)CCNC(=O)C12CC3(C)CC(C)(CC(C)(C3)C1)C2	12	-14	99	96
Cc1c(C(=O)/C=C/N(C)C)nnn1-c1ccccc1	-1	1	94	99
Cc1ccccc1NS(=O)(=O)c1ccc2c(c1)c(=O)n(C)c(=O)n2C	-1	-2	103	105
O=C(NCc1cccnc1)N(c1ccccc1)c1ccccc1	2	-18	103	105

4 compounds from above, showing only PV pol inh and PV pol inh intensity.
smiles	PV pol inh	PV pol inh intensity
N#Cc1cc(Oc2ccccc2Cl)c(-n2nnc3ccccc32)cc1C#N	103	101
Cc1ccc(S(=O)(=O)NCCC(=O)N2CCCCC2)cc1	104	101
Cn1nc(-c2ccccc2F)c2cc(C(=O)NCCCN3CCN(c4ccc(F)cc4)CC3)sc21	99	102
NCC1Cc2ccccc2O1 (stereo not drawn)	101	101

Ordered by length of the SMILES (low to high): some entries from above.
SMILES	Mtb MbtI inh	Mtb MenB inh	PV pol inh	PV pol inh intensity
O=C(NCc1cccnc1)N(c1ccccc1)c1ccccc1	2	-18	103	105
CC(C)n1[nH]c(=O)c2c1NC(=O)CSC2c1ccc(Br)cc1 (stereo not drawn)	-7	-8	106	110
Cn1nc(-c2ccccc2F)c2cc(C(=O)NCCCN3CCN(c4ccc(F)cc4)CC3)sc21	0	-26	99	102

The list continues:
SMILES	Mtb MbtI inh	Mtb MenB inh	PV pol inh	PV pol inh intensity
O=C(Nc1cccc(F)c1)N1CCN(Cc2ccccc2)CC1	-4	-17	102	104
COc1ccc(N2CCN(C(=O)CSc3ccc(S(=O)(=O)N(C)C)cn3)CC2)cc1	3	6	102	104
CS(=O)(=O)CCC(C(=O)N1CCCC1)N1Cc2ccccc2C1=O (stereo not drawn)	-16	7	100	102
Cc1ccc2c(c1)N(CC(=O)NC1CCCC(C)C1C)C(=O)c1cccnc1O2 (stereo not drawn)	0	-10	103	97
COC(=O)C1=C(C)N(Cc2cccnc2)C(=O)C1	-3	-30	104	102
COc1ccc2c3c1OC1C(O)C=CC(C=C2)C31CCN(C)C (stereo not drawn)	nt	6	101	108
Cc1noc(C)c1CSc1ccccc1C(=O)N1CCN(c2ccccc2)CC1	-10	-39	104	101
O=c1c2cc3c(=O)n(-c4ccc(Cl)cc4)c(=O)c3cc2c(=O)n1-c1ccc(Cl)cc1	nt	-3	100	105
C/C(=N\NC(=O)C1CCCCC1)c1cccs1	-1	-25	100	103
NC(=O)C1CCCN(C(=O)CNC(=O)C23CC4CC(CC(C4)C2)C3)C1 (stereo not drawn)	-7	-33	106	109
CCN1C(=O)/C(=C/c2ccc(Cl)cc2)NC1=S	-144	-24	102	107
CC1=Nc2ccc(Cl)cc2C(c2ccccc2)N1CC(=O)NN (stereo not drawn)	6	-82	101	97
CCC(C(=O)N1CCCCC1)n1ncn2c(cc3occc32)c1=O (stereo not drawn)	8	-5	103	108
COc1cccc(C(=O)NN2C(=S)N(c3ccccc3)C(=O)C2CC(N)=O)c1 (stereo not drawn)	nt	-14	107	111
CC(C)CCNC(=O)C1CCCN(S(C)(=O)=O)C1 (stereo not drawn)	5	5	103	103
CCOc1ccc2nc(NCCCNC(=O)c3cc(OC)c(OC)c(OC)c3)c(C#N)cc2c1	-6	-25	104	104
CCn1c2ccccc2c2cc(NC(=O)COC)ccc21	46	7	102	103
CCCNC(=O)c1nnc(Cc2ccc(OC)c(OC)c2)o1	-3	-62	106	107
O=C(O)C1(c2ccc(Cl)cc2)CCC1	-13	-16	102	99
Cc1nc2c(c(C)nn2C(C)(C)C)c(C)c1CCC(=O)NCCCc1ccccc1	3	-23	101	96
CN1CCN(CCN2C(=O)c3ccccc3Sc3cc(Cl)ccc3S2(=O)=O)CC1	-2	-3	102	101
C=CCn1c(C)cc(C(=O)CN(CC)CC(=O)NC2CCS(=O)(=O)C2)c1C (stereo not drawn)	-6	-14	105	110
CCN(c1ccc(OC)cc1)c1ncnc2nc[nH]c12	-1	-10	100	101
N#Cc1cnn(-c2nc3ccccc3[nH]2)c1N	131	-7	nt	nt
CCN1CCOC(=O)C1CC(=O)Nc1cccc(C)c1 (stereo not drawn)	79	-69	103	98
SMILES	Mtb MbtI inh	Mtb MenB inh	PV pol inh	PV pol inh intensity
NS(=O)(=O)c1ccc(NNC(=O)c2cccs2)cc1	5	4	105	107
CCSc1nnc2nc3c4ccccc4c4ccccc4c3nn12	3	-10	103	114
Cc1ccc2c(c1)Nc1nc3nonc3nc1N2	5	1	101	106
CC1CC(C)(C)CC2(C1)NC(=O)NC2=O (stereo not drawn)	-7	-37	107	101
O=c1[nH]c(CNCC2CCCO2)nc2ccccc12 (stereo not drawn)	-8	-36	113	109
O=C(Nc1ccccc1)N1CCCN(Cc2ccc(F)cc2)CC1	2	12	106	99
CCOc1nccc(C(F)(F)F)c1C(=O)N(CC)c1c(C)cccc1C	-6	-5	100	97
COC(=O)c1cccc(NC(=O)NC(C)C)c1	20	7	108	112
C/C(=N\NC1=NCCN1)c1ccccc1	16	-13	102	95
CC1=Nc2ccccc2N(CC(O)Cn2c3ccccc3c3ccccc32)C(=O)C1 (stereo not drawn)	nt	-20	104	105
CN(Cc1ccccc1)c1sc(S(C)(=O)=O)nc1S(=O)(=O)c1ccc(Cl)cc1	-3	-34	106	100

Compounds were not picked by outcome (roughly 1.8% active in at least one column).
